Bioassay records (PubChem)
H5N1 CPE: MDCK cell protection from H5N1 avian flu | cytopathic effect, luminescence, 72 h; stronger effect = higher value; no value below 0 was filed and about half of the inactive calls have no number; reference of the scale not given here | inhibition, % at 50 µM | actives 0.07% (n = 96,000); in the data active = inhibition above about 25%
Starred values were filed as active, the others as inactive; i = inactive. These rows are one share of the data; the hit share may differ from the screen's.

No.	compound	H5N1 CPE
1	O=C(O)CCNS(=O)(=O)c1ccccc1	i
2	COc1cccc(N(CC(=O)N2CCN(C)CC2)S(=O)(=O)c2ccccc2)c1	0.2
3	Cc1ccc(S(=O)(=O)N2CCN(C(=O)CN3CCOCC3)C2)cc1	0.4
4	Cc1ccc(-c2nnc(N3CCN(C(=O)CN4CCOCC4)CC3)c3ccccc23)cc1	i
5	Cc1ccccc1S(=O)(=O)Cc1ccc(C(=O)N2CCN(c3ncccn3)CC2)o1	0.3
6	CC1CCCN(C(=O)CNC(=O)Cn2ccc3ccccc3c2=O)C1 (stereo not drawn)	1.1
7	CCNC(=O)CSc1nc2ccccc2c(=O)n1-c1cc(OC)ccc1OC	0.1
8	CCOCCCNC(=O)c1cc2sc(Cl)cc2n1CC	i
9	CCOC(=O)CSc1n[nH]c(-c2cccnc2)n1	4.3
10	O=S1(=O)C=CC(Nc2ccccc2)C1 (stereo not drawn)	0.1
11	O=C(C1CC1)N1CCc2cc(Br)cc(S(=O)(=O)NCc3ccco3)c21	3.8
12	O=C(c1cc2nc(-c3ccco3)cc(C(F)(F)F)n2n1)N1CCN(c2ccccn2)CC1	i
13	COc1ccc2c(c1)C(=O)N(c1ccc(C)cc1)C(=O)C2	i
14	CC(Sc1nnc(-c2cccs2)n1-c1ccccc1)C(=O)NCc1ccco1 (stereo not drawn)	2.6
15	CC1=C(C(=O)Nc2ccccc2)C(c2cccs2)C(C#N)=C(SCC#N)N1 (stereo not drawn)	i
16	O=C(NCCOCCOCCNC(=O)c1cccnc1)c1cccnc1	i
17	COc1ccccc1CNC(=O)N[C@@H](Cc1ccccc1)C(=O)O	0.5
18	FC(F)(F)c1nnc2sc(-c3ccco3)nn12	1.3
19	OCCNCCCCOc1ccccc1F	i
20	O=C(CSc1nnc(Cc2ccccc2)n1-c1ccc(F)cc1)N1CCOCC1	1.5

Overlap with the part before: three entries, followed by the next part.
No.	compound	H5N1 CPE
18	FC(F)(F)c1nnc2sc(-c3ccco3)nn12	1.3
19	OCCNCCCCOc1ccccc1F	i
20	O=C(CSc1nnc(Cc2ccccc2)n1-c1ccc(F)cc1)N1CCOCC1	1.5
21	CN(c1ccc(C(=O)NCC2CCCO2)cc1)S(=O)(=O)c1ccccc1 (stereo not drawn)	0.2
22	Fc1ccc(Nc2nc(Oc3ccc4c(c3)OCO4)nc(N3CCOCC3)n2)c(F)c1	0.4
23	COc1ccccc1N1CCN(c2nc3c(C)cccn3c(=O)c2C=O)CC1	2.0
24	O=C(CCNC(=O)Cn1ccc2ccccc2c1=O)NCCCN1CCN(c2ccc(F)cc2)CC1	1.0
25	CCC(c1nnnn1Cc1ccc(OC)cc1)N(CCCO)Cc1cc2cc3c(cc2[nH]c1=O)OCO3 (stereo not drawn)	i
26	CC(C)OC(=O)COc1ccc(-c2ccccc2)cc1	0.6
27	O=C(CCn1c(=O)oc2ccccc21)Nc1nc2ccccc2s1	0.9
28	CCOC(=O)c1cc(-c2ccc(C)cc2)n(CCC(=O)NC(C)CC)c1C (stereo not drawn)	i
29	O=C(NCC(=O)N1CCCC1)c1cccs1	1.1
30	CCCCn1ccc(O)c(Cc2ccc(F)cc2)c1=O	1.5
31	COc1cc(CC(=O)NCc2ccco2)cc(OC)c1OC	1.6
32	O=c1[nH]cnc2c1N1CCC2CC1	0.2
33	CC1=NN(c2nc(-c3ccc(F)cc3)cs2)C(=O)C1	i
34	Cc1ccc(CNC(=O)C2CC(c3ccc([N+](=O)[O-])cc3)=NO2)cc1 (stereo not drawn)	0.3
35	O=[N+]([O-])c1ccc(Sc2nccn2Cc2ccccc2)c([N+](=O)[O-])c1	9.6
36	COc1ccc(N(CC(=O)O)S(C)(=O)=O)cc1OC	1.2
37	O=C(Nc1ccc(Cl)cc1)c1cc2nc(-c3ccco3)cc(C(F)(F)F)n2n1	i
38	COC(=O)C(c1cc(OC)c(O)c(OC)c1)(N1CCNC(C)C1)C(F)(F)F (stereo not drawn)	0.5
39	Cc1nnc(SCC(=O)Nc2nsc(-c3ccccc3)n2)s1	8.5
40	COc1ccc(Oc2cc(F)nc(N)n2)cc1	0.3
41	CCCCn1nc(C(=O)O)ccc1=O	0.1
42	CCc1nnc2sc(-c3ccc(NC(=O)c4ccc5c(c4)OCCO5)cc3)nn12	1.8
43	CC(C)(C)NS(=O)(=O)c1ccc(CCC(=O)NCc2cccnc2)cc1	i
44	Cc1nn(C)c(C)c1NC(=O)c1ccnn1C	i
45	O=C(O)CN1CCCC1=Nc1ccccc1	0.3
46	CCCS(=O)(=O)N1CCN(C(=O)c2cccs2)CC1	i
47	CCN(C(=O)CSc1ncn[nH]1)C1CCCCC1	0.7
48	O=C(Cn1nnc(-c2cccc(C(F)(F)F)c2)n1)N1CCOCC1	0.8
49	O=C(CCCc1nc(-c2ccccc2Cl)no1)NC1CCCCC1	i
50	CN1CCN(c2ccccc2N)CC1	i
51	Cc1ccc(S(=O)(=O)NCC(=O)N2CCCCC2)cc1	2.7
52	O=C(O)CNC(=O)CC12CC3CC(CC(C3)C1)C2	0.3
53	Cc1cccc(C)c1OCC(=O)NCc1nnc(SCC(=O)NC2CCCCC2)n1C	1.1
54	CC(=O)c1c(OC(=O)c2ccco2)c2ccccc2n1C	0.5
55	CCc1ccc(C(=O)CN(C#N)c2nc(C)cc(C)n2)cc1	8.0
56	COc1ccc(S(=O)(=O)N(CC(=O)O)c2ccccc2)cc1	i
57	COc1ccc(N=C2S/C(=C\c3cccs3)C(=O)N2CC(C)C)cc1	i
58	Cc1nc(SCC(=O)c2ccc(F)cc2)n[nH]1	i
59	CCCOc1cccc(C2/C(=C(/O)c3ccc(OC)cc3)C(=O)C(=O)N2CCN(C)C)c1 (stereo not drawn)	0.4
60	O=C(CN(C(=O)CCC(=O)Nc1ccccn1)c1ccc2c(c1)OCO2)NCc1ccco1	0.6
61	CCn1c(SCC(=O)Nc2cc(C)on2)nnc1-c1ccncc1	i
62	Cn1c(=O)c2cc(S(=O)(=O)NCCC(=O)Nc3ccc(Cl)cc3)ccc2n(C)c1=O	0.1
63	Nc1ccc(C(=O)Nc2ccc3nc(-c4cccnc4)[nH]c3c2)cc1	2.4
64	CCOC(=O)C1=C(c2ccccc2)NC(SCC(N)=O)=C(C#N)C1c1cccnc1 (stereo not drawn)	0.8
65	Cc1ccc(S(=O)(=O)N2CCCSCC2)cc1	1.0
66	Cc1ccc(Cn2c(-c3nonc3N)nc3ccccc32)cc1	i
67	COC(=O)CSc1nnc(-c2ccc(S(=O)(=O)NCc3cccs3)cc2)o1	2.3
68	Cc1cccn2c(=O)c(/C=C(\C#N)S(=O)(=O)c3ccccc3)c(N3CCN(C)CC3)nc12	2.3
69	CC(C)(C)c1ccc(C(=O)Nn2c(CCC(=O)O)ccc2-c2cccs2)cc1	0.7
70	COc1ccc(C)cc1NC(=O)C1CCCCC1C(=O)O (stereo not drawn)	0.1
71	O=C(NC1CCCCCCC1)C1CCN(c2nc3ccccc3o2)CC1	i
72	CCOC(=O)c1c(C2CCN(C(=O)OCC)CC2)nc2ccccn12	5.2
73	Cn1cc(C(=O)N2CCN(C(=O)c3ccco3)CC2)c2c3ccccc3n(C)c2c1=O	1.8
74	COc1ccc(NC(=O)NCCCN2CCCC2=O)cc1	i
75	CC(C)n1c(SC2CCOC2=O)nc2ccccc21 (stereo not drawn)	i
76	CCc1nc(OCc2ccco2)c2sc3nc4c(cc3c2n1)COC(C)(C)C4	i
77	CC1CCC2(CC1)NC(=O)N(CC(=O)c1cccn1C)C2=O (stereo not drawn)	i
78	CC(C)(C)C(=O)NC(=S)Nc1ccccc1C(=O)Nc1ccccc1	1.9
79	CC12CCC(C(=O)Nc3nccs3)(OC1=O)C2(C)C (stereo not drawn)	1.6
80	COc1ccc(Cn2nnnc2CN2CCc3ccccc32)cc1	0.6

The listing continues:
No.	compound	H5N1 CPE
81	COc1cc(-c2c(C#N)c(=O)[nH]c3c2c(C)nn3-c2ccccc2)ccc1O	3.8
82	C=CCN(c1ccc(C(=O)N2CCN(c3ccc(F)cc3)CC2)cc1)S(C)(=O)=O	0.8
83	COc1ccc(C2NC(=O)c3n[nH]c(C)c32)c(OC)c1 (stereo not drawn)	2.0
84	O=C(NCc1ccccc1)C1(c2ccccc2)CCN(S(=O)(=O)c2ccccc2)CC1	1.6
85	CCOC(=O)CC1=C(C(=O)OCC)C2(C(=O)N1)C(C(=O)OC)=C(N)Oc1ccccc12 (stereo not drawn)	i
86	CN(C)c1ccc(NC(=O)CCCc2ccccc2)cc1	i
87	CN(CC(=O)O/N=C(\N)c1ccccn1)S(=O)(=O)c1ccc(Br)cc1	i
88	CCN(CC(=O)Nc1ccc2c(c1)OCCO2)Cc1cc(=O)oc2c(C)c(C)ccc12	2.0
89	CCOC(=O)c1nc(Nc2ccccc2)c2ccccc2n1	0.2
90	O=C1c2ccccc2C(=O)N1CCN1CCCCC1	0.3
91	Cc1cc(=O)cc(C)[nH]1	i
92	CCNC(=S)NS(=O)(=O)c1ccccc1	0.1
93	CC1(C)CC(=O)C2=C(C1)N1CCCCC1CC2=O (stereo not drawn)	i
94	COC(=O)c1nnn(CC(=O)Nc2ccc(C)c(F)c2)c1C(=O)OC	0.8
95	O=C(O)C1CCCCN1S(=O)(=O)c1ccc(Cl)s1 (stereo not drawn)	0.2
96	Cc1ccc(C(=O)CSc2nnc(-c3ccco3)n2Cc2ccccc2)cc1	i
97	Cc1sc2ncnc(N3CCN(c4ncccn4)CC3)c2c1C	0.9
98	CS(=O)(=O)N(CC(=O)Nc1ccc2c(c1)OCO2)c1ccc(Cl)cc1	i
99	O=C(Nc1ccc2c(c1)OCCO2)c1cnc2n(c1=O)CCS2	5.5
100	Nn1c(COc2ccccc2)nnc1SC(F)F	i
101	COc1ccccc1NC(=O)CN(C)S(=O)(=O)c1cc(C)ccc1OC	0.4
102	CCC(C)Sc1nc(C)nc2c1c(=O)n(C)c(=O)n2C (stereo not drawn)	2.4
103	COc1ccc(C2C(C(=O)c3ccco3)=C(O)C(=O)N2Cc2cccnc2)cc1OC (stereo not drawn)	i
104	CC(=O)CCC(=O)NCCc1ccccc1F	i
105	Cc1nc2sc3c(O)cc(=O)[nH]c3c2c(C)c1C	i
106	Cc1ccc(NC(=O)c2cccc(Cl)c2)nc1	i
107	O=C(CN1CCN(c2ccccn2)CC1)Nc1ccc(F)cc1	i
108	Cc1ccc(C)c(NS(=O)(=O)c2c(C)nn(C)c2C)c1	i
109	O=C(C1CCCN(S(=O)(=O)c2cccnc2)C1)N1CCn2c1nc1ccccc12 (stereo not drawn)	1.1
110	CN1CCN(Cc2c(O)ccc3occ(C(=O)c4ccccc4)c23)CC1	i
111	O=C(NCC(O)c1ccccc1)c1cccc(S(=O)(=O)N2CCOCC2)c1 (stereo not drawn)	i
112	CN(c1ccccc1C(=O)Nc1cccc(Cl)c1Cl)S(C)(=O)=O	2.0
113	CCOC(=O)/C(C#N)=C1/C=CN(Cc2ccccc2)C=N1	i
114	COC(=O)COC(=O)CC(CC(N)=O)c1ccccc1 (stereo not drawn)	0.1
115	Cn1c(NC(=O)c2ccco2)c(-c2ccccc2Cl)c(=O)c2ccccc21	0.3
116	CCc1ccc2nc(N3C(=O)C(O)=C(C(=O)c4ccco4)C3c3cccs3)sc2c1 (stereo not drawn)	i
117	CC1C(c2ccccc2)C(C#N)(C#N)C2(C#N)C(=O)NC1(N)C2C (stereo not drawn)	i
118	O=S(=O)(Nc1ccc2nc(C(F)(F)F)[nH]c2c1)c1ccccc1	3.5
119	COC(=O)c1ccccc1NC=C1C(=O)OC2(CCCCC2)OC1=O	0.2
120	Cc1cc(=O)[nH]c(SCC(=O)Nc2nc3c(s2)CCCC3)n1	0.8

Rewritten field by field: four of the compounds above
[105] Cc1nc2sc3c(O)cc(=O)[nH]c3c2c(C)c1C
  H5N1 CPE: i
[106] Cc1ccc(NC(=O)c2cccc(Cl)c2)nc1
  H5N1 CPE: i
[107] O=C(CN1CCN(c2ccccn2)CC1)Nc1ccc(F)cc1
  H5N1 CPE: i
[108] Cc1ccc(C)c(NS(=O)(=O)c2c(C)nn(C)c2C)c1
  H5N1 CPE: i

The results go on:
No.	compound	H5N1 CPE
121	COc1ccc(-c2cc(C(=O)NCCN3CCOCC3)c3ccccc3n2)c(OC)c1	0.3
122	Cc1ccc(NC(=O)N/C=C/c2ccc(Cl)cc2)cc1	i
123	O=C(NNC1=C(C(=O)C(F)(F)F)CCC1)c1ccc(Cl)cc1	6.6
124	O=C1CCC(C(=O)OCc2c(Cl)cccc2Cl)N1 (stereo not drawn)	i
125	Nc1nc2n(n1)C(c1ccco1)CC(c1ccccc1)N2 (stereo not drawn)	i
126	CCOc1ccc2[nH]c(C)c(CN3CCN(CC)CC3)c(=O)c2c1	0.2
127	CCOCCCNc1ncc2c(n1)CC(c1ccc(C)cc1)CC2=O (stereo not drawn)	0.7
128	Cc1cc(C)cc(OCC(=O)NNC(=O)c2ccoc2C)c1	i
129	CCOC(=O)CC1=C(C(=O)OCC)C(c2cccnc2)C(C#N)=C(N)O1 (stereo not drawn)	i
130	COC(=O)c1ccc(C(=O)OC)c(NC(=O)c2cnc3n(c2=O)CCS3)c1	0.3
131	CC(=O)c1ccc(O)c(CO)c1	i
132	CCCC1COC(Cn2cncn2)(c2ccc(Cl)cc2Cl)O1 (stereo not drawn)	1.3
133	COc1ccc2[nH]c(=O)c(CN(C)C(=O)COc3ccccc3)cc2c1	0.9
134	Clc1ccc(-c2nc3cnccn3c2NC2CCCC2)cc1	i
135	CCOC(=O)c1c(NC(=O)CSc2nnnn2CC)sc(C)c1C	0.1
